# RN4220 kill – kills Staphylococcus aureus RN4220. inhibition, % (test concentration not listed). 330,000 tested, 0.33% active. S. aureus RN4220 growth, OD600, 16 h. AID 1259311;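 active = z-score of -3 or lower and OD600 up to 0.18 on both plates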;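 also: plate controls were untreated cells for no effect and reference antibiotic for full effect; stock transfer was 100 nL into about 80 µL; one replicate is shown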
# PrP 5UTR inh – inhibition of PrP 5' UTR reporter expression | cell-based PrP 5' UTR mRNA reporter, plate reader | 340,000 tested, 0.35% active | AID 488862 | inhibition, % (test concentration not listed);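 active = every replicate at 50% or more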;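 also: 0 = median of the neutral control wells; tested in H4 reporter cells; numbers are from one replicate; inactives centre near -14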
# Sa ugtP lethal – growth inhibition of S. aureus ugtP deletion strain; S. aureus RN4220 ugtP deletion, OD600 growth, 16 h; some inactives read as strong as hits; AID 1259309; 330,000 tested, 0.54% active; growth inhibition, % (concentration not given with the values);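 active = z-score under -3 and OD600 up to 0.15 on both plates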;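 also: plate controls were untreated wells for no effect and antibiotic for full effect; wells of about 80 µL received 100 nL stock; the first replicate is given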
# BJeLR viability – kills HRASV12-expressing BJeLR cells; inhibition, % (concentration not given with the values); BJeLR (HRASV12) viability, CellTiter-Glo ATP luminescence, 48 h; reference of the scale not given here; 300,000 tested, 0.17% active;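 active = replicate mean above 50%; inconclusive = above 50% but judged a plate artefact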;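 also: 50 nL library stock added to about 25 µL; numbers are from one replicate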
# Bead autofluor – compound fluorescence in toxin protease inhibitor counterscreen | fluorescence intensity (test concentration not listed) | compound autofluorescence counterscreen, microsphere flow cytometry; hits give high values | 360,000 tested, 3.1% active;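 active = at least 3 SD above the mean of all compounds, about 16000 in these data; inconclusive = too few beads counted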;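 also: 100 nL of 1 mM stock went into each well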
# Mtb hypoxia rep – inhibitors of hypoxia-regulated fluorescent reporter in Mycobacterium tuberculosis; M. tuberculosis hypoxia-regulated fluorescent reporter, fluorescence; fluorescence inhibition, % (concentration not given with the values); 300,000 tested, 0.1% active;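 active = 35 to 45% if threefold the growth effect, above 45% if 1.5-fold the growth effect; inactive = the rest, general growth blockers included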;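 also: wells of about 50 µL received 100 nL stock; 0% = vehicle wells and 100% = reference inhibitor wells; whole bacteria with a GFP reporter of the hypoxia response; strong numbers were not always called active; many hits fall short of the cut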
# Mtb hypoxia rep growth – also measured in Mtb hypoxia rep; calls as there; growth inhibition, %; measured here: M. tuberculosis growth (absorbance);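 0% = vehicle and 100% = reference antibiotic; read after six days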
# * = called active by the depositor; u = inconclusive; x = no result given.
SMILES,RN4220 kill,PrP 5UTR inh,Sa ugtP lethal,BJeLR viability,Bead autofluor,Mtb hypoxia rep,Mtb hypoxia rep growth
CCN(CC)CCCN(C(=O)c1cccs1)c1nc(-c2ccc(OC)cc2)cs1,0.3,-13.7,9.2,0.5,6114,-1.8,11.8
Cc1ccc(NC(=S)NCc2cccs2)cc1,1.5,-4.8,-4.9,-6.8,2303,x,x
COC(=O)c1cccc(NC(=S)N2CCCCC2)c1,5.0,-22.7,9.6,3.4,2794,9.2,10.8
CCCCCCNC(=O)CCc1nc2cccnc2n1Cc1ccc(OC)cc1,3.8,-17.3,18.7,0.6,2749,-7.7,-5.4
Cc1occc1-c1nnc(SCC(N)=O)n1Cc1ccccc1,8.7,-6.3,17.1,0.7,7905,8.4,-2.0
CCC(C)n1c(O)c(C=NCCN2CCOCC2)c(=O)[nH]c1=S (configuration not stated),0.4,-8.3,1.8,3.5,4502,-9.1,11.9
Cc1ccc2nc(C)c(C(=O)N/N=C/c3ccccc3[N+](=O)[O-])cc2c1,x,-9.7,x,-6.8,1966,x,x
O=C(CC(c1ccco1)S(=O)(=O)c1ccccc1)c1ccccc1 (configuration not stated),10.4,-21.1,14.3,2.8,4442,12.1,6.3
Cc1cccc(OCC(=O)NCC(=O)NN=Cc2cccs2)c1,5.8,x,-0.4,x,x,7.2,0.4
CCOC(=O)Cn1nc(C)cc1NC(=O)c1cc(OC)c(OC)c(OC)c1,5.3,-38.8,7.8,14.5,3737,6.0,4.1
Nc1nnc(SCCN2C(=O)c3ccccc3C2=O)s1,4.9,-6.8,3.5,-0.9,11844,3.2,-5.3
O=C(c1ccccc1)N1C(=O)C(c2ccccc2)Oc2ccccc21 (configuration not stated),1.5,-10.0,1.1,6.7,4406,1.0,15.9

# Complete entries from above:
# Profile of Cc1ccc(NC(=S)NCc2cccs2)cc1 = RN4220 kill: 1.5; PrP 5UTR inh: -4.8; Sa ugtP lethal: -4.9; BJeLR viability: -6.8; Bead autofluor: 2303; Mtb hypoxia rep: x; Mtb hypoxia rep growth: x
# Profile of CCCCCCNC(=O)CCc1nc2cccnc2n1Cc1ccc(OC)cc1 = RN4220 kill: 3.8; PrP 5UTR inh: -17.3; Sa ugtP lethal: 18.7; BJeLR viability: 0.6; Bead autofluor: 2749; Mtb hypoxia rep: -7.7; Mtb hypoxia rep growth: -5.4

# The list continues.
SMILES,RN4220 kill,PrP 5UTR inh,Sa ugtP lethal,BJeLR viability,Bead autofluor,Mtb hypoxia rep,Mtb hypoxia rep growth
COc1ccc2oc(=O)c(C(=O)OCc3ccccc3)cc2c1,5.4,-17.9,1.3,9.6,3402,-3.1,5.6
COCC(=O)N1CCC(Oc2ccc(C(=O)N[C@H](C(=O)OC)C(C)C)cc2)CC1,2.5,-35.6,0.9,7.6,3306,0.0,9.5
Cc1cc(N2CCN(C)CC2)nc2ccc(NC(=O)CCC(=O)NCCc3ccc(Cl)cc3)cc12,12.0,-5.6,9.6,12.2,3243,-12.0,-11.1
CCn1c(SCC(=O)N/N=C/c2ccc(OC)c(OC)c2)nc2ccccc21,x,-8.7,x,2.7,22575*,x,x
Cc1cc(C(=O)N/N=C/c2ccncc2)c2ccccc2n1,x,-15.1,x,5.1,4001,x,x
O=C(NCCCCCCNC(=O)c1cccs1)c1cccs1,3.0,-29.2,-5.9,3.4,2183,7.2,3.4
CCOc1ccc(C(=O)NCCN2CCCC2)cc1,4.7,1.6,2.4,2.4,3028,14.6,-3.1
CC(C)CC(NC(=O)CCC(=O)OCC(=O)[C@@]1(O)CCC2[C@@H]3CCC4=CC(=O)C=C[C@]4(C)C3[C@@H](O)C[C@@]21C)C(=O)O (some centres not stated),2.3,18.7,2.5,-4.4,3795,1.7,1.6
COc1ccc(C(=O)Nc2cccc3c2CCCC3)cc1,4.5,-25.6,7.0,24.7,3584,8.1,15.9
Nc1cc(=O)[nH]c(SCC(=O)NNC(=O)Cc2ccccc2)n1,-1.9,-19.9,-2.4,-3.8,2192,-5.5,-0.5
Cc1c(C(=O)OCCOC(C)C)[nH]c2c1C(=O)CC(c1ccco1)C2 (configuration not stated),-0.5,65.5*,8.2,35.7,5453,x,x
Cc1ccc(C(=O)NC(=S)NNC(=O)c2ccccc2O)cc1,24.3,-11.7,6.3,-2.3,4073,-10.6,5.1
OC1O[C@H](c2ccc3c(c2)OCO3)[C@H]2CO[C@H](c3ccc4c(c3)OCO4)[C@@H]12 (some centres not stated),x,-12.5,x,-4.4,3588,x,x
COc1ccc(-c2nnc(NC(=O)C3CCCN3S(=O)(=O)c3cccs3)o2)cc1 (configuration not stated),6.3,-17.2,54.9,1.3,u,5.0,8.3
Cc1ccc(C2c3sc(=O)[nH]c3SC3C4CC(C5C(=O)N(C(C)C(=O)O)C(=O)C45)C23)cc1 (configuration not stated),5.0,-1.8,11.2,-10.6,1997,0.7,-4.6
C=C(C)c1cccc(C(C)(C)NC(=O)NCc2cccnc2)c1,9.6,-8.9,1.5,x,4247,9.7,7.1
Cn1c(=O)c2ccccc2n(CC(=O)N2CCCc3ccccc32)c1=O,-1.8,-2.0,6.3,1.3,3723,3.3,14.1
COC(=O)CC(NC(=S)N1CC2C[C@@H](C1)Cn1c2cccc1=O)C(=O)OC (some centres not stated),0.7,-6.1,0.3,-3.2,3976,-11.3,-0.1
COCCn1c(SCC(=O)Nc2nnc(C)s2)nnc1-c1ccoc1C,1.4,-7.4,10.2,14.4,3124,5.2,-0.6
Cn1c(=O)c2c(nc(SCC(=O)NCC3CCCO3)n2C)n(C)c1=O (configuration not stated),1.8,-2.2,1.1,4.6,9495,3.7,5.5
CC1CCCCC1NC(=O)COC(=O)c1cccn1C (configuration not stated),5.4,-17.6,5.4,x,6324,10.9,2.0
COC(=O)[C@@H](NC(=O)/C=C/c1ccc(OC)cc1)C(C)C,-0.8,-66.2,1.1,10.9,4431,3.9,14.2
COc1cc(/C=N/NC(=O)c2cc(-c3ccco3)nc3ccccc23)cc(OC)c1O,x,-22.9,x,8.0,4720,x,x
COc1ccc(N2CCN(C(=O)c3ccc4c(=O)n(Cc5ccc6c(c5)OCO6)c(=O)[nH]c4c3)CC2)cc1,5.5,-12.5,9.6,-12.1,4369,3.0,-5.5
COc1ccc(CN2CC(=O)N(c3ccccc3OC)C2=S)cc1OC,4.7,-4.1,1.9,-0.3,3372,10.6,3.7
COc1ccc(C(=O)N/C(=C\c2ccc(SC)cc2)C(=O)NCCCn2ccnc2)cc1OC,0.0,-23.6,-1.1,x,3756,4.6,3.8
CC1CN(S(=O)(=O)c2ccc(C(=O)N(CCCN(C)C)c3nc4cc5c(cc4s3)OCCO5)cc2)CC(C)O1 (configuration not stated),4.5,-5.1,3.1,-10.5,6251,14.2,5.4
CCCC(=O)NCc1cc(-c2nn(C)c(=O)c3ccccc23)ccc1C,3.4,-14.7,-6.3,9.4,3770,9.8,10.7
CS(=O)(=O)N1CCC(C(=O)Nc2ccc(C(N)=O)cc2)CC1,4.8,-14.6,-2.4,-1.2,3762,9.9,1.8
COc1ccc(S(=O)(=O)Nc2ccc(CC#N)cc2)cc1,2.9,-16.4,2.4,x,4033,x,x
COc1ccccc1C(=O)Nc1ccc(S(=O)(=O)Nc2nccs2)cc1,3.8,-12.5,1.8,-4.6,4811,17.4,15.7
CCOC(=O)c1cnc2ccc(C)cc2c1NCCN1CCOCC1,4.0,-7.0,6.6,-4.5,3788,3.3,-3.0
Cc1ccc(OCCn2cc(/C=C(\C#N)C(=O)NCC3CCCO3)c3ccccc32)cc1 (configuration not stated),5.2,-18.5,-24.8,-8.3,1923,4.5,7.9
COc1cc(C(C)=O)ccc1OCC(O)Cn1nc(C)c(C(C)=O)c1C (configuration not stated),4.1,-16.5,4.8,3.9,4414,7.0,4.5
COc1ccc(Cl)cc1C(=O)Nc1ccc(S(N)(=O)=O)cc1,-1.5,-13.8,13.9,-1.2,3605,-1.9,7.1
C=CCn1c(=O)c2ccccc2n2c(SCC(=O)O)nnc12,3.5,-25.1,3.0,1.4,3842,5.9,9.4
COc1ccc(C)cc1NC(=O)Cc1c(C(=O)O)n(C)c2ccccc12,10.5,-30.9,14.0,-11.1,3968,10.1,5.1
Cc1cc(NC(=O)c2cc(S(=O)(=O)N3CCCCC3)ccc2C)no1,1.7,-6.8,0.1,x,3938,-6.1,16.6
CC(CC(=O)Nc1ccc(Cl)c(C(F)(F)F)c1)=NNC(=O)c1cccc(O)c1,7.4,x,-6.9,x,x,7.8,8.7
Cn1c(=O)n(Cc2ccc(F)cc2)c(=O)c2c1nc1n2CCN1Cc1ccco1,9.4,-11.0,2.8,4.0,4536,7.8,17.3
C/C(CC(=O)NC1CCCC1)=N\NC(=O)Cc1cccs1,x,-0.3,x,-7.4,11298,x,x
COc1ccc(C(=O)COC(=O)c2nn(C)cc2Cl)cc1,6.7,-14.4,13.8,-6.3,2967,2.1,-0.3
Cc1ccc(Nc2nc(N)c([N+](=O)[O-])c(N3CCOCC3)n2)cc1C,9.8,-3.8,-17.9,-18.8,6851,3.8,1.0
O=C(CS(=O)(=O)c1ccccc1)Nc1cccnc1,-2.9,-11.0,1.1,-1.5,4414,3.6,-7.2
CC1CCc2[nH]nc(C(=O)O)c2C1 (configuration not stated),-0.1,-11.8,-2.0,-7.5,20725*,-9.1,2.3
COc1ccc(NC(=O)/C(Cl)=C(/Cl)S(=O)Cc2ccc(Cl)cc2)cn1 (configuration not stated),1.1,-17.0,10.2,x,4750,x,x
COC(=O)Cn1c(O)c(N=NC(=O)CNC(=O)c2ccncc2)c2ccccc21,0.3,-0.8,-2.1,2.5,6194,-2.2,15.2
Cc1ccccc1NC(=O)Cc1cccc(C(F)(F)F)c1,0.0,-22.8,-2.2,-2.8,3382,4.4,2.0
CN1CCSC1=CC=C1C(=O)N(C)C(=S)N1C,6.6,x,-5.2,x,x,41.3*,10.5*
COc1ccc(Br)cc1C(=O)Nc1ccccc1N1CCN(C(=O)c2ccccc2)CC1,-2.3,-22.1,-4.5,-7.7,3262,-13.0,10.3
Cc1ccc(C(=O)C2CN3CCC2CC3)cc1 (configuration not stated),3.0,-8.6,-4.5,-6.6,3153,6.6,-3.2
CC(C)NC(=NCc1ccc(Cl)cc1Cl)Nc1ccccc1,-0.1,-1.4,-16.9,-1.9,3605,7.4,3.1
Oc1cccc(-c2nc3c4c(ncn3n2)-c2ccccc2CC42CCCC2)c1,31.2,-17.6,88.8*,3.3,10852,2.5,-4.2
CN(C)CCNS(=O)(=O)c1ccc(Cl)cc1,-1.6,-10.2,-5.2,-10.1,4478,10.9,8.9
COc1ccc(NC(=O)[C@@H]2CCCN2C(=O)c2cccs2)cc1S(=O)(=O)N1CCCCC1,3.9,-17.1,4.7,x,3639,5.8,-0.4
CCC(C)N(C(=O)CSc1nc2ccc(OC)cc2[nH]1)C1CCS(=O)(=O)C1 (configuration not stated),5.3,2.7,11.7,-5.4,u,13.7,2.4
CCCCCCOc1ccc(/C(C)=N/NC2=NCCN2)cc1[N+](=O)[O-],x,-26.0,x,2.1,2947,x,x
N#CCCN(C(=O)COC(=O)CSc1ccc(Cl)cc1)c1ccccc1,11.1,-5.9,8.8,x,2897,8.5,9.5
CCOc1ccccc1N1CC(C(=O)Nc2cc(Cl)ccc2C)CC1=O (configuration not stated),5.4,-13.7,6.7,0.8,5186,8.0,9.1
CC(=O)Cn1c(CN2CCCC2)nc2ccccc2c1=O,1.1,-10.1,-0.2,5.7,4218,1.1,13.8

# Three compounds picked at random from the list so far:
SMILES,RN4220 kill,PrP 5UTR inh,Sa ugtP lethal,BJeLR viability,Bead autofluor,Mtb hypoxia rep,Mtb hypoxia rep growth
COC(=O)c1cccc(NC(=S)N2CCCCC2)c1,5.0,-22.7,9.6,3.4,2794,9.2,10.8
CCn1c(SCC(=O)N/N=C/c2ccc(OC)c(OC)c2)nc2ccccc21,x,-8.7,x,2.7,22575*,x,x
Cc1cc(NC(=O)c2cc(S(=O)(=O)N3CCCCC3)ccc2C)no1,1.7,-6.8,0.1,x,3938,-6.1,16.6

# Next part
SMILES,RN4220 kill,PrP 5UTR inh,Sa ugtP lethal,BJeLR viability,Bead autofluor,Mtb hypoxia rep,Mtb hypoxia rep growth
COc1ccc(C(=O)N/C(=C/c2cccnc2)C(=O)N2CCN(C)CC2)cc1OC,7.1,-11.5,19.4,5.5,4741,5.4,-1.3
Cc1cccc(NC(=O)CSc2nccn2C)c1,8.1,-21.7,3.8,5.8,2970,5.8,-3.2
Cc1ccc2nc3ccc(N4CCCC4)nn3c(=O)c2c1,-13.5,-68.1,-3.7,-11.3,2374,4.1,-1.4
O=C(Nc1nc(-c2ccccc2)ns1)c1ccncc1,4.7,1.8,-2.1,2.4,4419,7.5,10.3

# Source: PubChem BioAssay (several laboratories)
